GALR2 agonist: agonists of human galanin receptor 2 (GALR2); O43603; GALR2-expressing cells, agonist activation read-out; activation, %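 (tested at 5 µM)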; hit rate 0.48% among 140,000;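 active = above mean plus 3 SD of all compounds, about 5% in these data, not always enough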;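 note: 0% = vehicle buffer wells and 100% = reference agonist at full effect; tested in CHO reporter cells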
Target sequence (O43603 whole entry, looked up): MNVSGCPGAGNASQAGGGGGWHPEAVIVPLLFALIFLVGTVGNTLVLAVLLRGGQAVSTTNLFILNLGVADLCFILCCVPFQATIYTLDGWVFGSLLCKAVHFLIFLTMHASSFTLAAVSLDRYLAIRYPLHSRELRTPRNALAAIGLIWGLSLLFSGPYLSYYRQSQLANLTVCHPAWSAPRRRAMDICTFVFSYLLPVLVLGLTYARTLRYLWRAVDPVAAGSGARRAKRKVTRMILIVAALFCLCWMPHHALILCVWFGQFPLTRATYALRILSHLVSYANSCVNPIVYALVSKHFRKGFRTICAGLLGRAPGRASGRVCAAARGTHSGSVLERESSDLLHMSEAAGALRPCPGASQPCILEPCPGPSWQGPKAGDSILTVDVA
RGS16-Gao: regulators of human RGS16-Galphao interaction; binding response (% of control), % at 10 µM; O15492+P09471; hit rate 0.38% among 220,000; bead-based flow cytometry RGS16-Galphao binding, fluorescence; actives lie on both sides;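 active = below 25% or above 175%, edge rows of some plates excepted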;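 note: Galphao activated by GDP with aluminum fluoride before binding; 100% = wells without compound and 0% = beads without RGS; some results beyond the cut were filed as inactive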
Target sequence (O15492 whole entry, looked up): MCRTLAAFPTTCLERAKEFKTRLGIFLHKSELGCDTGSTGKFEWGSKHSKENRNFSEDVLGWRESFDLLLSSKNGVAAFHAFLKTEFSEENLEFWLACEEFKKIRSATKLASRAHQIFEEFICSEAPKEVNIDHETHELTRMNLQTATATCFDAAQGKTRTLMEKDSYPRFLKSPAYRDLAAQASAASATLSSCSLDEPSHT
Target sequence (P09471 whole entry, looked up): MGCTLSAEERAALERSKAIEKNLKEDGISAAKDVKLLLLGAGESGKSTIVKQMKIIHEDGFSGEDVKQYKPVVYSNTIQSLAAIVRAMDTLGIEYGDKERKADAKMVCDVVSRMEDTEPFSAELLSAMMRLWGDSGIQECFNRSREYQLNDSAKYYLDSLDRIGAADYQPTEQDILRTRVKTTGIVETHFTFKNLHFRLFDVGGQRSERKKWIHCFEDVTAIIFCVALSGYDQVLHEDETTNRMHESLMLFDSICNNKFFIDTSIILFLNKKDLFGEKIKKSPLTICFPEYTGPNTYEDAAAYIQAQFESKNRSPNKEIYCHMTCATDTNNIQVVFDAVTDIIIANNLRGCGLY
PKD1 kinase inh: PKD1 (human) kinase inhibition. inhibition, %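 (about 10 µM by stock and volumes)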. Q15139. hit rate 0.056% among 200,000. PKD1 kinase fluorescence polarization assay. AID 797;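 active = inhibition of 50% or more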;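 note: controls were vehicle for no effect and a reference inhibitor for full effect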
Insulin prom inh: TRM-6 insulin promoter activity inhibition; TRM-6 cells (human fetal islet line), insulin promoter-eGFP reporter, imaging; reporter expression induced with tamoxifen; inhibition, % at 2 µM; hit rate 0.9% among 130,000; AID 1273;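 active = inhibition above the mean plus 3 SD, with well images judged a real hit on visual review, cut at about 60% in these data, passing the limit was not always enough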
HSV replic up: increases HSV replication in cells | HSV replication augmentation in cells, fold increase | maximum fold increase | hit rate 0.005% among 220,000 | AID 1956;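 active = peak rise of 1.5-fold or more in the series; tested in PC3 cells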;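 note: first round at 10 µM; read as green reporter fluorescence; hits show the peak of a series up to 25 µM; 1 = signal of infected wells without compound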
Insulin prom inh cell count: recorded beside Insulin prom inh, whose call it bears; normalized cell count, %; measured here: cell count, toxicity; reference of the scale not given here;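 cells exposed to compound for 48 h; stained nuclei by imaging scaled within each plate; lower means fewer cells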
HSV replic up primary fold: recorded beside HSV replic up, whose call it bears; fold increase; compound at 10 µM; measured here: primary screen fold increase 10 uM; tested in PC3 cells;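 GFP signal in the first replicate; 1 = infected wells without compound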
Active calls of the source: *; i = inactive; . = not tested or not shown; [ ] = another dose, or the depositor's remark. Outcome played no part in choosing rows; overall some 1.3% were active at least once.

SMILES	GALR2 agonist	RGS16-Gao	PKD1 kinase inh	Insulin prom inh	Insulin prom inh cell count	HSV replic up	HSV replic up primary fold
NNC(=O)CN1C(c2cccc(Cl)c2)=Nc2ccc(Br)cc2C1c1ccccc1 (configuration not stated)	-0.7	102	-2	.	.	i	1.2
Cc1nc(Nc2nc(-c3ccccc3)cc(=O)[nH]2)nc2ccccc12	-0.1	.	1	14	142	i	0.97
CC(C)(C)c1ccc(S(=O)(=O)O/N=C2/CCCCC2c2ccc([N+](=O)[O-])cc2[N+](=O)[O-])cc1 (configuration not stated)	-2.3	106	10	3	175	i	1
O=C(CSc1nnc(Cc2ccc3c(c2)OCO3)n1C1CCCCC1)NC1CCCC1	5.0	108	-8	-62	88	i	0.89
COc1cccc(S(=O)(=O)Nc2cccc(C(=O)N3CCCCCC3)c2)c1	-1.2	102	-6	.	.	i	0.92
O=C1CC(=Nc2ccccc2)NN1c1ccccc1	-3.7	97	-7	-46	117	i	0.96
COc1ccc(C(=O)COC(=O)CCCn2c(=O)oc3ccccc32)cc1	-1.5	.	1	-33	106	i	0.93
Cc1c(C(=O)N2CCCC2)sc(NC(=O)c2cccc(Cl)c2)c1C#N	-1.4	103	-2	.	.	i	0.8
C/C(=N/NC(=O)c1cc(-c2cccc([N+](=O)[O-])c2)n[nH]1)c1cccc(O)c1	.	113	.	.	.	i	0.89
NC(=O)NC(CC(=O)NCCCc1ccccc1)c1ccccc1Cl (configuration not stated)	.	102	-5	29	79	i	0.86
CC(=O)Nc1ccc(OCc2cnc(Cl)s2)cc1	.	98	-7	12	96	i	0.87
CCCCNC(=O)CCCn1c(=S)[nH]c2cc3c(cc2c1=O)OCO3	-0.9	108	8	57	63	i	0.86
O=C(Nc1c(F)cc(F)cc1Br)c1cc2nc(C(F)F)cc(C(F)F)n2n1	0.0	104	-2	-22	211	i	0.8
O=C(Nc1nc(-c2ccncc2)cs1)C1c2ccccc2Oc2ccccc21	-1.1	101	-13	21	118	i	1
CCOC(=O)Cn1nc(C)c2c1CCCC2=O	-0.7	97	-7	54	68	i	0.99
CCN(CCO)Cc1cn[nH]c1-c1ccc(C)c(C)c1	-1.6	111	21	.	.	i	1.2
O=C(c1ccc(-c2ccccc2)c(F)c1)C1CCCN(C(=O)c2cncs2)C1 (configuration not stated)	.	99	5	.	.	i	0.99
COc1cc(-c2nc3n(n2)C(c2ccncc2)C2=C(CCCC2=O)N3)cc(OC)c1OC (configuration not stated)	.	100	-7	-7	61	i	0.93
O=C(CN1C(=O)CCC1=O)Nc1nc(-c2ccc3ccccc3c2)cs1	.	107	-2	-11	158	i	1
O=C(Nc1nc(=O)[nH]s1)c1ccccc1	.	107	-2	0	184	i	0.93
CC(C(=O)NN)c1ccc([N+](=O)[O-])cc1 (configuration not stated)	.	103	-9	.	.	i	1
COc1ccc(S(=O)(=O)NCC(=O)N(CC(=O)NC(C)(C)C)Cc2cccs2)cc1	.	105	3	.	.	i	0.97
COc1ccc(S(=O)(=O)N(C)CC(=O)Nc2cccc(C(C)=O)c2)cc1C	-0.8	102	-3	22	105	i	1.2
O=S(=O)(NC1=NCCC1)c1ccc(F)cc1	-1.1	94	0	20	142	i	1
NS(=O)(=O)c1ccc(N/N=C/c2ccc(O)c(O)c2O)c([N+](=O)[O-])c1	.	20*	.	.	.	i	1

Further entries follow.
SMILES	GALR2 agonist	RGS16-Gao	PKD1 kinase inh	Insulin prom inh	Insulin prom inh cell count	HSV replic up	HSV replic up primary fold
COc1ccc(CNC(=O)C/C(C)=N/NC(=O)COc2ccccc2)cc1	.	101	-1	.	.	i	0.92
CC(C)CNS(=O)(=O)c1ccc(CCC(=O)Nc2ccc3c(c2)OCCO3)cc1	-3.1	103	2	-42	133	i	1
Cc1ccnc(N(C(=O)Nc2ccccc2)C2=NCC(C)(C)S2)c1	.	101	.	.	.	i	1.1
CCCn1c(SCC(=O)N2c3ccccc3CC2C)nnc1-c1ccco1 (configuration not stated)	-0.9	105	-1	-87	96	i	0.96
O=C(CCN1CCN(c2ccccc2)CC1)NNC(=O)c1cccc2ccccc12	-0.9	107	-4	.	.	i	0.98
O=C(NCc1csc2ccc(Cl)cc12)Nc1ccccc1	.	105	.	.	.	i	0.92
Cc1ccsc1/C=C1\SC(=S)N(CC2CCCO2)C1=O (configuration not stated)	.	100	-3	.	.	i	1.1
Cc1cc(C)n2nc(C)c(Br)c2n1	.	98	2	.	.	i	1.1
CCc1nc(C#N)c(N2CCCCC2)o1	-1.6	102	-4	-13	89	i	1
C=CCCCCCCCCC(=O)NN	-1.6	101	-1	58	111	i	0.75
O=C(C(=O)c1cccnc1)c1cccnc1	.	98	.	.	.	i	0.84
CCSc1nnc2n1C(C)(C)Cc1ccccc1-2	-1.4	102	-2	32	101	.	.
Cc1nc(SCC(=O)NC(=O)NC(C)(C)C)nc(C)c1C	.	94	.	.	.	i	0.96
CC(NC(=O)c1cccs1)c1n[nH]c(=S)n1C (configuration not stated)	-0.8	104	-14	-15	100	i	0.9
Cn1c(=O)c2c(n(C)c1=O)=NC1(CCCCC1)N=2	-0.5	66	-1	60	150	i	0.9
CC(NS(=O)(=O)c1cccc(S(=O)(=O)c2ccccc2)c1)C(=O)O (configuration not stated)	-2.2	79	-5	38	34	i	1
CC1(C)C=C2[C@H]3CC[C@@H]4[C@@]5(C)CCC(=O)C(C)(C)[C@@H]5CC[C@@]4(C)[C@]3(C)CC[C@@]2(C(=O)O)CC1	-1.3	267*[activator]	-3	-30	77	i	1.1
Cc1ccc(NC(=O)c2csc3c2CCCC3)cc1	.	102	0	.	.	i	0.96
CNC(=O)CSc1nc(N)c2c3c(sc2n1)CCC3	-2.8	106	-3	11	128	i	1.1
CCOc1ccccc1Oc1coc2cc(O)ccc2c1=O	-1.9	99	3	-10	69	i	0.89
Cc1ccc2nc(-c3ccccc3)c(NC(=O)c3ccco3)n2c1	-2.3	98	-3	29	111	i	0.93
Nc1ccccc1-c1ccccc1N	.	107	1	.	.	i	0.9
Cc1ccc(S(=O)(=O)NCc2ccncc2)cc1C	.	103	3	.	.	i	1
Cc1ccc(NC(=O)CCSc2nnc(Cc3ccccc3)o2)cc1	0.3	97	-3	3	107	i	1
O=C1N=c2ccccc2=C1c1sc(=S)n(NC(=O)c2ccccc2)c1O	.	100	.	.	.	i	1

Full records from above.
Profile of `Cc1ccc(S(=O)(=O)NCc2ccncc2)cc1C` = GALR2 agonist = .; RGS16-Gao = 103; PKD1 kinase inh = 3; Insulin prom inh = .; Insulin prom inh cell count = .; HSV replic up = i; HSV replic up primary fold = 1
Profile of `Cc1nc(SCC(=O)NC(=O)NC(C)(C)C)nc(C)c1C` = GALR2 agonist = .; RGS16-Gao = 94; PKD1 kinase inh = .; Insulin prom inh = .; Insulin prom inh cell count = .; HSV replic up = i; HSV replic up primary fold = 0.96

Going on with the list:
SMILES	GALR2 agonist	RGS16-Gao	PKD1 kinase inh	Insulin prom inh	Insulin prom inh cell count	HSV replic up	HSV replic up primary fold
COC(=O)c1cnc2ccccc2n1	-0.3	85	-1	-26	158	i	0.99
CN(C)S(=O)(=O)c1ccc(Cl)c(NC(=O)COC(=O)c2cc(-c3ccccc3)nc3ccccc23)c1	-1.9	85	-4	15	123	i	0.96
COc1ccc2nc(NC(=O)C3CCCN(S(=O)(=O)c4cccs4)C3)sc2c1 (configuration not stated)	0.0	99	3	.	.	i	0.77
O=C(Nc1nnc(-c2ccco2)o1)c1ccc(S(=O)(=O)N2CCOCC2)cc1	.	98	4	36	100	i	0.95
Cc1cccc(N/C(N)=N/c2nc(CSc3ccc(Cl)cc3)cc(=O)[nH]2)c1	.	102	.	.	.	i	0.96
Oc1ccc(Cl)cc1/C=C/c1ccc2cccc(O)c2n1	.	103	0	25	44	i	0.95
O=C(CCc1ccccc1)Nc1ccc(NC(=O)C2CC2)nc1	-1.2	108	-4	10	97	i	0.93
COc1cc(/C=C2\SC(c3ccccc3)=NC2=O)cc(Cl)c1O	.	95	1	.	.	i	1
Cn1nnnc1SCC(=O)NC1CCCc2ccccc21 (configuration not stated)	.	100	1	-18	61	i	1
O=C(CNS(=O)(=O)c1ccc2ccccc2c1)OCc1csc(-c2ccccc2)n1	-0.9	100	-10	-59	120	i	1
O=c1c(-c2nnc(SCc3ccc(Cl)cc3)o2)cccn1Cc1ccccc1	-1.2	98	-4	-36	104	i	0.64
CC(C(=O)N(C)C)N(C#N)c1nc(N(C)C)nc(N(C)C)n1 (configuration not stated)	-1.5	106	-4	.	.	i	1
CCOC(=O)C(=CNc1ccc(N2CCOCC2)cc1)C(=O)OCC	.	103	.	.	.	i	1.1
O=c1[nH]cnc2c1sc1nc(-c3ccccc3)c3c(c12)CCCC3	-2.4	93	-8	.	.	i	0.95
COc1ccc(Cl)cc1-n1c(=S)sc2c(=O)[nH]c(SCC(=O)NCC3CCCO3)nc21 (configuration not stated)	0.0	103	-2	29	98	i	0.99
N#Cc1nc(-c2ccc(Cl)cc2)oc1NCCc1ccccn1	0.0	97	-11	61	98	i	1
Cc1cc(C)c2[nH]c(=O)c(C(c3nnnn3Cc3ccc4c(c3)OCO4)N3CCC(C)CC3)cc2c1 (configuration not stated)	-2.3	102	-7	-47	106	i	0.89
COc1ccc(-n2c(C)n[nH]c2=O)cc1OC	-1.7	109	-2	14	183	i	0.9
CCOC(=O)c1c(NC(=O)CSc2nnc(-c3cccc(C)c3)n2CC)sc(C(C)=O)c1C	-0.7	92	9	33	73	i	0.88
O=C(CC1CCCCC1)OCn1nnc2ccccc2c1=O	-1.4	98	-5	-21	99	i	0.95
Cc1cc(C)c(NC(=O)CS(=O)CC(=O)Nc2ccc(F)cc2F)c(C)c1 (configuration not stated)	.	100	.	.	.	i	0.92
Cc1[nH]c2ccccc2c1NC(=O)CN1CCN(Cc2ccc3c(c2)OCO3)CC1	-0.7	116	3	20	62	i	0.93
CCOC(=O)c1sc(N)nc1-c1ccccc1	-0.5	98	-8	.	.	i	1.1
COc1ccc(C(=O)C2CCCN(C(=O)c3cccs3)C2)cc1F (configuration not stated)	.	104	5	.	.	i	1.1
CCc1ccc(OC)c(S(=O)(=O)NCCOc2ccccc2)c1	-0.9	91	-10	-226	65	i	1

Later entries.
SMILES	GALR2 agonist	RGS16-Gao	PKD1 kinase inh	Insulin prom inh	Insulin prom inh cell count	HSV replic up	HSV replic up primary fold
Nc1nc(-c2ccccc2)c(N=Nc2ccccc2Cl)s1	-0.1	106	-1	-8	74	i	0.64
COc1cc(C(=O)Nc2nnc(CC(C)C)s2)c([N+](=O)[O-])cc1OC	.	97	-12	47	98	i	1
CNC(=O)c1[nH]cnc1C(=O)Nc1ccccn1	.	106	-3	27	115	i	1
CC1=C(C(=O)OC(C)C)C(c2cccs2)NC(=O)N1 (configuration not stated)	.	100	7	7	115	i	0.98
O=C(NCc1ccc2c(c1)OCO2)c1cc(-c2cc(Cl)ccc2O)n[nH]1	.	103	.	.	.	i	0.85
O=c1cc(-c2ccccc2)nc2c(-c3ccccc3)c(C(F)(F)F)[nH]n12	.	98	.	.	.	i	0.99
COc1cc(/C=N/NC(=O)CCc2c(C)n[nH]c2C)cc(OC)c1OC	-2.5	104	-5	-4	90	i	0.91
Cc1ccccc1N1C(=O)C(Cl)=C(N2CCN(c3ccccc3)CC2)C1=O	-2.6	104	-2	.	.	i	1
O=C(NCc1ccc(N2CCCC2=O)cc1)c1ccc(F)cc1	.	101	-2	.	.	i	0.94
O=C(O)c1cccnc1C(=O)N1CCc2c([nH]c3ccccc23)C1C(F)(F)F (configuration not stated)	.	102	.	.	.	i	1
COc1ccc2cc(C(=O)N3CCOCC3)sc(=O)c2c1OC	-0.7	103	-2	35	116	i	0.78
c1ccc(Cc2nc3ccccc3o2)cc1	-2.1	103	-5	32	110	i	0.9
O=C(CSc1ccc(-c2ccc(Cl)cc2)nn1)N1CCCc2ccccc21	-0.4	101	8	.	.	i	0.94
COC(CNC(=O)c1cc(C)nn1-c1ccccc1)OC	-0.3	98	-6	38	128	i	0.93
CCO[C@H]1OC(C(=O)NCc2ccccc2)=C[C@@H](c2ccc(Br)cc2)[C@@H]1CCCO	.	106	5	.	.	i	0.86
CCCCN(C)CCC(=O)Nc1ccc(C)cc1	-0.5	47	-13	19	83	i	1.1
CCOc1cc(C(c2c(C)[nH][nH]c2=O)c2c(C)[nH][nH]c2=O)ccc1OS(=O)(=O)c1ccccc1	1.3	83	0	.	.	i	1.1

No new results follow: an excerpt of the list.
SMILES	GALR2 agonist	RGS16-Gao	PKD1 kinase inh	Insulin prom inh	Insulin prom inh cell count	HSV replic up	HSV replic up primary fold
CCCCN(C)CCC(=O)Nc1ccc(C)cc1	-0.5	47	-13	19	83	i	1.1
CCOc1cc(C(c2c(C)[nH][nH]c2=O)c2c(C)[nH][nH]c2=O)ccc1OS(=O)(=O)c1ccccc1	1.3	83	0	.	.	i	1.1

Bioassay records deposited in PubChem by several laboratories.
